Source: PubChem (ICCB-Longwood Screening Facility, Harvard Medical School)
MgrA-DNA mod: alters Staphylococcus aureus MgrA binding to DNA. fluorescence polarization. inhibition, %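 (about 10 µg/mL by stock and volumes)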. 0.13% of 84,000 active;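 active means above 50% in either of two replicates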;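 further: 0% = protein plus DNA without compound and 100% = DNA alone without protein; higher means less MgrA bound to DNA so lower polarization; one replicate is shown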
S aureus helic: S. aureus DNA helicase inhibition | inhibition, %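 (tested at about 80 µM)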 | 0.05% of 120,000 active | purified S. aureus helicase, fluorescence unwinding assay; about half of the hits fall short of the stated cut;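 active means both duplicates at 50% or more, or one of them with a favoured structure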;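 further: 0% = mean of negative control wells and 100% = mean of positive control wells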
An asterisk follows results filed as active; x = no result given.

S aureus helic	MgrA-DNA mod	structure
x	-0.6	COc1cc(OC)c(OC)cc1/C=C1/SC(=S)N(CC(=O)O)C1=O
3	-1.5	Nc1nc(Nc2ccc(Cl)c(Cl)c2)nc(-c2cc3ccccc3o2)n1
x	1.7	CCSc1nccc(-c2ccc3c(c2)CCC(C)(C)O3)n1
x	-1.5	CCOC(=O)c1c(-c2ccccc2)oc2c1cc(OC(=O)c1cccs1)c1ccccc12
2	3.2	Cc1ccc(-c2cnc(-c3ccc(Br)cc3)o2)cc1
9	x	CCSc1nnc(NC(=O)CC23CC4CC(CC(C4)C2)C3)s1
x	1.0	CCc1cc2c(=O)oc(-c3ccc(F)cc3)nc2s1
x	-2.0	COC(=O)COc1c(C)cc(-c2nn(C)c(=O)c3ccccc23)cc1C
-5	x	CN(C(=O)Cn1c(=O)oc2ccccc21)C1CCCCC1
x	-0.7	O=C(NCCNc1nccc(C(F)(F)F)n1)c1cccc(C(F)(F)F)c1
17	2.7	COc1cc(CO)ccc1OCC(=O)NC1CCCCC1
24	-0.9	CCc1c(C)[nH][n+]2cnn(Cc3ccc(Cl)cc3)c2c1=O
x	1.2	CC[C@H](CC[C@@H](C)[C@H]1CC[C@H]2[C@@H]3CC=C4C[C@@H](O)CC[C@]4(C)[C@H]3CC[C@]12C)C(C)C
x	-0.8	COc1ccc(C2=NN(C(=O)CCC(=O)O)C(c3ccc(OC)c(OC)c3)C2)cc1 (stereo unspecified)
5	-2.9	CN(C(=O)c1ccc(F)cc1)c1ccc(OCC(=O)NCc2ccncc2)cc1
7	-0.6	CCCN1C2CCCC1CC(NC(=O)NC1CCCCC1)C2 (stereo unspecified)
-5	1.6	Nc1cccc(C(=O)NC23CC4CC(CC(C4)C2)C3)c1
7	4.6	Cc1n(O)c2c3c(c4c(c2[n+]1[O-])n(O)c(C)[n+]4[O-])[n+]([O-])c(C)n3O
6	x	CCOC(=O)c1cc(-c2ccc3c(c2)OCCO3)n[nH]1
16	-1.8	O=C(CCc1ccccc1)Oc1ccc(F)cc1
-18	x	c1ccc(-c2nc(CSc3nnnn3-c3ccccc3)cs2)cc1
-18	x	CC1(C)CC(=O)C2=C(C1)Nc1nc(=S)[nH]c(N)c1C2c1ccncc1 (stereo unspecified)
x	-0.9	COc1ccc(CN=C(C#N)C2=C(O)c3ccccc3C2=O)cc1
x	-0.3	CS(=O)(=O)c1noc(-c2ccc(Cl)cc2)c1C#N
-7	x	CCOC(=O)c1c(C)oc2c1c1c(c3ccccc32)OCN(Cc2ccco2)C1
-120	x	CCOC(=O)/C(C#N)=C/c1ccc(-c2cccs2)s1
-9	x	Cc1ccccc1NC(=O)Cn1c(C)cc(C)c(C#N)c1=O
4	x	Cc1cc(-c2csc(CC#N)n2)c(C)n1Cc1ccc2c(c1)OCO2
6	-0.4	COc1ccc(-c2cn3nc(N4CCC(C(=O)O)CC4)sc3n2)cc1
-14	-0.5	COc1ccc2[nH]cc(S(=O)(=O)c3ccc(C)cc3)c2c1

Not a retest: 22 of the compounds above.
S aureus helic	MgrA-DNA mod	structure
-5	x	CN(C(=O)Cn1c(=O)oc2ccccc21)C1CCCCC1
x	-0.7	O=C(NCCNc1nccc(C(F)(F)F)n1)c1cccc(C(F)(F)F)c1
17	2.7	COc1cc(CO)ccc1OCC(=O)NC1CCCCC1
24	-0.9	CCc1c(C)[nH][n+]2cnn(Cc3ccc(Cl)cc3)c2c1=O
x	1.2	CC[C@H](CC[C@@H](C)[C@H]1CC[C@H]2[C@@H]3CC=C4C[C@@H](O)CC[C@]4(C)[C@H]3CC[C@]12C)C(C)C
x	-0.8	COc1ccc(C2=NN(C(=O)CCC(=O)O)C(c3ccc(OC)c(OC)c3)C2)cc1 (stereo unspecified)
5	-2.9	CN(C(=O)c1ccc(F)cc1)c1ccc(OCC(=O)NCc2ccncc2)cc1
7	-0.6	CCCN1C2CCCC1CC(NC(=O)NC1CCCCC1)C2 (stereo unspecified)
-5	1.6	Nc1cccc(C(=O)NC23CC4CC(CC(C4)C2)C3)c1
7	4.6	Cc1n(O)c2c3c(c4c(c2[n+]1[O-])n(O)c(C)[n+]4[O-])[n+]([O-])c(C)n3O
6	x	CCOC(=O)c1cc(-c2ccc3c(c2)OCCO3)n[nH]1
16	-1.8	O=C(CCc1ccccc1)Oc1ccc(F)cc1
-18	x	c1ccc(-c2nc(CSc3nnnn3-c3ccccc3)cs2)cc1
-18	x	CC1(C)CC(=O)C2=C(C1)Nc1nc(=S)[nH]c(N)c1C2c1ccncc1 (stereo unspecified)
x	-0.9	COc1ccc(CN=C(C#N)C2=C(O)c3ccccc3C2=O)cc1
x	-0.3	CS(=O)(=O)c1noc(-c2ccc(Cl)cc2)c1C#N
-7	x	CCOC(=O)c1c(C)oc2c1c1c(c3ccccc32)OCN(Cc2ccco2)C1
-120	x	CCOC(=O)/C(C#N)=C/c1ccc(-c2cccs2)s1
-9	x	Cc1ccccc1NC(=O)Cn1c(C)cc(C)c(C#N)c1=O
4	x	Cc1cc(-c2csc(CC#N)n2)c(C)n1Cc1ccc2c(c1)OCO2
6	-0.4	COc1ccc(-c2cn3nc(N4CCC(C(=O)O)CC4)sc3n2)cc1
-14	-0.5	COc1ccc2[nH]cc(S(=O)(=O)c3ccc(C)cc3)c2c1

(continued)
S aureus helic	MgrA-DNA mod	structure
10	x	CC(C)=C1C(=O)Nc2ccc(S(=O)(=O)Nc3ccccc3)cc21
-7	x	CCOc1ccc(N=CC2=C(O)CC(C)(C)CC2=O)cc1
x	0.8	C/C(=N\OCc1cccc(C(=O)O)c1)c1ccc(Cl)cc1
x	-0.5	Cc1nc(C)c(Oc2ccc(Cl)cc2Cl)c(NCc2ccccc2)n1
4	0.8	CCOC(=O)c1ccc(NCc2ccc(N(C)C)cc2)cc1
1	x	COc1ccc(-c2cccc(NS(=O)(=O)c3ccccc3)c2)nn1
x	-1.6	O=C(NC(=S)Nc1ccc2c(c1)CCC2)c1ccccc1
x	0.9	CC1(C)CC(=O)C2=C(C1)OC1=C(C(=O)CC(C)(C)C1)C2c1ccccc1O
18	1.4	CCC1=C/C(=C\c2ccc3c(c2)OCO3)C(=O)S1
x	-0.2	N#Cc1cnn2c(-c3ccc(Oc4ccccc4)cc3)ccnc12
10	1.2	Cc1ccc(N(CCCCN2C(=O)c3ccccc3C2=O)C(=O)c2cccc(Cl)c2)cc1
2	-0.9	Nc1c(C(=O)c2ccc(Br)cc2)sc2[nH]c(=O)c(C(=O)O)cc12
-6	x	Nn1c(Cc2ccccc2F)nnc1SCC(=O)NCC(F)(F)F
16	x	CN1CCSc2ccc(C(=O)N3CCCCCC3)cc21
-2	x	COc1ccc(-n2cnnc2SCc2c(C#N)oc3ccc(Br)cc23)cc1
5	x	O=C(c1ccc(S(=O)(=O)N2CCCCC2)cc1)N(c1ccccc1)C1C=CS(=O)(=O)C1 (stereo unspecified)
14	-1.3	COc1cc(C(=O)OCCCN2CCOCC2)ccc1O
35	x	COc1ccc(N2CCN(CCCNC(=O)C3CCN(S(=O)(=O)c4ccc(Br)s4)CC3)CC2)cc1
5	x	Cc1ccc2nsnc2c1N(S(C)(=O)=O)S(C)(=O)=O
3	x	O=C(CSc1nnc(-c2cccs2)n1-c1ccccc1)NCCC1=CCCCC1
26	x	O=C(CCC(=O)n1ncc2ccc(Cl)cc21)N1CCN(c2ccccc2)CC1
11	0.9	O=C(NC1CCCCCC1)C(F)(F)F
18	x	CCC(C)NC(=O)c1cn(C)c(=O)c2cc(OC)c(OC)cc12 (stereo unspecified)
4	-3.5	CC(C)(C)c1oc(C(=O)O)cc1CN1CCCC1
x	-1.3	COC(CN(C)c1ncnc2sccc12)OC
-5	x	Cc1nc2ccccc2c2oc(C(=O)NCCCN3CCCC3=O)cc12
16	3.6	CCC1CC(O)C(C)C(C)S1 (stereo unspecified)
8	1.2	O=c1[nH][nH]c(=O)c2c(N=Cc3c[nH]c4ccccc34)cccc12
x	-1.1	O=C(CN1CCc2ccccc21)N1CCc2ccccc21
-98	x	CN1C/C(=C\c2ccc(N(C)C)cc2)C(=O)/C(=C/c2ccc(N(C)C)cc2)C1

Whole records, quoted from the list. Values in the order: S aureus helic, MgrA-DNA mod
CN1C/C(=C\c2ccc(N(C)C)cc2)C(=O)/C(=C/c2ccc(N(C)C)cc2)C1 is listed with -98, x
COc1cc(C(=O)OCCCN2CCOCC2)ccc1O is listed with 14, -1.3
O=c1[nH][nH]c(=O)c2c(N=Cc3c[nH]c4ccccc34)cccc12 is listed with 8, 1.2

Next entries follow:
S aureus helic	MgrA-DNA mod	structure
x	-0.7	CCOC(=O)c1c(/N=C/c2c(C)[nH]n(-c3ccc(C)cc3)c2=O)sc(C)c1-c1ccc2cc(OC)ccc2c1
4	-0.6	O=S(=O)(NC1CC2CCC1C2)c1ccc2c(c1)OCCO2 (stereo unspecified)
10	-0.1	CCN(c1ccccc1)S(=O)(=O)c1ccc2[nH]cc(C(=O)NCc3ccccc3)c(=O)c2c1
28	x	CCCNC(=O)CSc1nnc(SCC(=O)NCCCn2nc(C)cc2C)s1
11	1.2	O=C1Nc2ccccc2NC1CC(=O)N1CCC2(CC1)OCCO2 (stereo unspecified)
-22	x	CC(C)(C)c1cc2nc(C(F)(F)F)cc(N3CCN(C(=O)Nc4ccccc4)CC3)n2n1
-1	x	O=C(NCCC1CCCCN1S(=O)(=O)c1ccccc1)Nc1ccccc1 (stereo unspecified)
0	0.2	CC1CC(C)CN(S(=O)(=O)c2ccc3[nH]cc(C(=O)NCCC4=CCCCC4)c(=O)c3c2)C1 (stereo unspecified)
-1	0.0	Cc1ccc2c(c1)sc1ncc(NC(=O)c3ccccc3)c(=O)n12
9	1.0	CCOC(=O)c1cnc2c(C)cc(C)cc2c1Nc1ccc2c(c1)OCCO2
10	x	Cc1cc(C)n(CCCNC(=O)c2ccc3ccccc3c2)n1
1	-1.8	NC(=O)COc1ccc(C2C3=C(CCCC3=O)OC3=C2C(=O)CCC3)cc1Cl
-21	x	O=C1CN(c2ccccc2)C(=O)C1C(=O)NCc1ccccc1 (stereo unspecified)
18	-3.6	COc1cc(/C=C/C(=O)C2CC2)cc(OC)c1OC
13	0.8	COc1cc(CNC(C)(C)CO)cc(Br)c1OCc1ccc(F)cc1
13	2.0	O=C(NC1CCCCC1)n1c(=O)oc2cc(S(=O)(=O)N3CCCCC3)ccc21
-23	x	CCCCN(C)C(=O)CN1C(=O)CCSc2ccccc21
x	-3.5	COc1ccc(OC(=O)c2ccc3ncccc3c2)cc1
10	x	CCc1cc(CN2CCOCC2)c(NC(=O)c2ccccc2)s1
-4	x	CC(C)(C)Nc1n[nH]c(=S)s1
x	0.3	CC(c1ccccc1)N1CCC(=O)C2=C1CCCC2 (stereo unspecified)
15	x	CC(C)CC(=O)N1CC(=O)Nc2ccc(Cl)cc2C1c1ccc(F)cc1 (stereo unspecified)
2	3.2	CC(C)NC(=O)CSc1nc2ccccc2c(=O)n1-c1ccccc1
-5	x	O=C(NCc1ccco1)c1cc2c(Cl)nc3ccccc3c2s1
x	-0.3	COc1ccc(NC(=S)NC(=O)c2ccccc2)c([N+](=O)[O-])c1
5	0.2	CCCC1=C(C(=O)OCC)C(c2ccccc2OC)C(C#N)=C(N)O1 (stereo unspecified)
5	0.8	CCN(CC)CCCOc1ccc(C)cc1C
8	-1.7	CCCSc1nnc(CN2CCOCC2)n1C
x	0.2	NC(=O)c1cccnc1Oc1ccc(Cl)cc1Cl
-3	x	O=C(NCC1COc2ccccc2O1)c1ccc(=O)[nH]c1 (stereo unspecified)
-3	x	N#CCn1c(COC(=O)CN2C(=O)C3CC=CCC3C2=O)nc2ccccc2c1=O (stereo unspecified)
7	1.2	O=C1c2ccccc2C(=O)N1CCCC(=O)n1ccc2ccccc21
-3	0.5	CC1(C)Nc2ccccc2C(=O)N1c1ccccc1
-18	x	CC(C)(C)C(=O)Nc1nnc(-c2ccccc2)o1
11	1.0	Cc1cccc(NC(=O)CCC2=NS(=O)(=O)c3cc(Br)cnc3N2)c1
18	x	C/C(=N\NC(=O)C1CC1)c1ccc(C(C)(C)C)cc1
8	-3.0	COC(=O)Nc1nc2ccc(C(=O)c3ccccc3C(=O)OC(C)C)cc2[nH]1
17	0.1	CCOC(=O)c1sc2nc(SCC(=O)Nc3ccc(OCC)cc3)n(N)c(=O)c2c1C
13	x	O=C(CCOc1ccccc1)Nc1nccs1
-29	4.6	Oc1ccccc1OCc1nc2ccccc2s1
x	-2.5	Clc1cc(Cl)cc(-c2nnnn2Cc2ccccc2)c1
1	x	NNC(=O)c1nc(COc2ccccc2Cl)no1
20	x	O=C(/C=C(\O)c1ccccc1)C(=O)Nc1cccc(F)c1
9	x	CCNC(=S)NN=C1CCC(C(C)(C)C)CC1 (stereo unspecified)
11	-0.8	CN1C=CC=C/C1=C1\SC(=S)N(C2CCCCC2)C1=O
21	x	Cc1cc(C)nc(NS(=O)(=O)c2ccc(NC(=O)Cn3c(=O)oc4ccccc43)cc2)n1
1	2.0	O=C(O)CCn1c2ccccc2c2ccccc21
7	x	Cc1nn2c(-c3ccccc3)csc2nc1=O
1	-0.2	Cc1ccc(NC(=O)C2OCCc3ccccc32)cc1 (stereo unspecified)
-124	x	CC1=CC(=C2N=C(c3ccccc3)OC2=O)C=C(C)O1

An excerpt, so the mix of outcomes need not match the whole.
